PABP polyA inh: PABP poly(A) RNA binding inhibitors, primary screen, biochemical, fluorescence polarization, uHTS; hit rate 1% among 290,000; inhibition, % at 35 µM; Polyadenylate-binding protein 1 (Homo sapiens), P11940; AID 2014, 2009;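 active means 50% or more with normal probe brightness, or confirmed in later tests; about a fifth of its hits are not listed in these tables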;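 further: calls also rest on retests at 20 µM and on dose response follow-up; controls were probe without protein and protein plus probe with vehicle; some compounds called inactive have numbers as strong as hits; many hits fall short of the cut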
Target sequence (P11940 whole entry, looked up): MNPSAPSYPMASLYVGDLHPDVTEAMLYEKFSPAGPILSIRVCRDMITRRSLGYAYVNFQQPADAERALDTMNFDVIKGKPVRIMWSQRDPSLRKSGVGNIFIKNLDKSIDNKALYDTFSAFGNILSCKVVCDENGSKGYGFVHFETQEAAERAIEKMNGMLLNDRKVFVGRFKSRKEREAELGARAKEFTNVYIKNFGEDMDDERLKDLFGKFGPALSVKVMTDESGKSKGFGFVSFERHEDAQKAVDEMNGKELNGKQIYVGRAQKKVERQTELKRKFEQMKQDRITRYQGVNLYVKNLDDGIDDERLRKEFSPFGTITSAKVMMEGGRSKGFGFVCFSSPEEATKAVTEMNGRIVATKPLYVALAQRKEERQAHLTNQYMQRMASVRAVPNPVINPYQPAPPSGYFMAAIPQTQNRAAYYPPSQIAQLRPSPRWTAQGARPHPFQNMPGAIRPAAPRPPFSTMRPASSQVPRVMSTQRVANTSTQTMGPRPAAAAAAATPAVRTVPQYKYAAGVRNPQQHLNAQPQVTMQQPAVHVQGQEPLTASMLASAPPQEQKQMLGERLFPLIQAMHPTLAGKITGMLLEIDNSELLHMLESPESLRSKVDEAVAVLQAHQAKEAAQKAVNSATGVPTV
Yeast UUG start: modulators of yeast start codon fidelity, primary screen, whole organism, S. cerevisiae, single point, plate reader | S. cerevisiae UUG-firefly luciferase reporter, luminescence/redox ratio | activity score, % at 18.7 µM | hit rate 0.13% among 350,000 | AID 602363, 2012;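 active means replicate mean at a twofold rise or more, about +100% in these data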;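 further: firefly luciferase made from a UUG start codon reports start codon fidelity; reporter light over untreated wells divided by growth signal over untreated wells; some hits fall short of that in this replicate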
Env fusion inh: inhibitors of HIV-1 Env-driven cell-cell fusion, primary screen, HeLa-JRFL effector, CEM21 target cells, luciferase; inhibition, % at 12.3 µM; hit rate 1.1% among 360,000; AID 651610, 2012;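 active means mean replicate inhibition score of at least 50 and every replicate individually at or above 50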;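 further: 0% = plate neutral controls and 100% = maraviroc near 300 nM; one replicate is shown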
CSC inhib: cancer stem cell viability inhibitors, primary screen, luminescence | AID 2717, 2010 | cancer stem cell-like cells viability | inhibition, % at 7.5 µM | hit rate 1.1% among 300,000;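 active means mean at 75% or more and at least half the replicates too; tested in HMLE shEcad cells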;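 further: 0% = median of negative and 100% = median of positive control wells; the first replicate is given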
eIF4H inh: human eIF4H binding inhibitors, primary screen, translation initiation inhibitor project, biochemical, uHTS, fluorescence polarization; hit rate 0.94% among 290,000; Eukaryotic translation initiation factor 4H (Homo sapiens), Q15056; inhibition, % at 35 µM; eIF4H fluorescence polarization binding assay;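 active means 50% or more with normal probe brightness, or confirmed in later tests; about a fifth of its hits are not listed in these tables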;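 further: calls also rest on retests at 20 µM and on dose response follow-up; 0% = protein and probe with vehicle and 100% = probe without protein; strong numbers were not always called active; many hits fall short of the cut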
Rce1 inh: yeast Rce1p protease inhibitors, primary screen, biochemical, fluorescence, cell-free homogeneous; yeast membranes, quenched prenylated peptide cleavage fluorescence; calls only; hit rate 0.27% among 290,000;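 active means fall in fluorescence gain of 50% or more versus controls, with final raw signal at or below 3038400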;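 further: plate controls were neutral control wells for no effect and wells lacking membranes for full effect; tested at 10 µM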
MT1-MMP act inh: blockers of MT1-MMP proenzyme processing, primary screen, HT1080 RFP-PRO-GFP cells, GFP/RFP fluorescence. Matrix metalloproteinase-14 (Homo sapiens), P50281. GFP/RFP ratio fluorescence, overnight; percent of plate control window, DMSO zero. GFP/RFP ratio change, % at 20 µM. hit rate 0.061% among 360,000;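 active means GFP/RFP ratio change of at least 30% with cell ATP level not reduced by more than half and red fluorescence within 50% of control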; further: strong numbers were not always called active
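Test system: HT1080 cells expressing an RFP-PRO-GFP fluorescent reporter construct / Compound dosing: single-point 20 µM compound, 1% DMSO / Schedule: cells overnight before dosing, compound overnight, 37 °C, 5% CO2 / Evaluation: GFP/RFP fluorescence ratio / Control set: DMSO and RFP-L50D-GFP cell wells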
eIF4H inh retest: recorded beside eIF4H inh, whose call it bears; inhibition, %; compound at 20 µM; confirmation average;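 mean of two retest wells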
PABP polyA inh retest: second read-out of PABP polyA inh, no call of its own (marks repeat the call); inhibition, %; compound at 20 µM; confirmation repeats;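 mean of two retest wells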
MT1-MMP act inh RFP: further read-out of MT1-MMP act inh, marked with its call; RFP signal change, %; measured here: RFP expression control read;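 0 = vehicle wells; hits needed this value within 50% of zero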
An asterisk follows results filed as active; i = inactive; . = no result given; & = joins results of further samples. Some of the compounds tested. The share of hits here may be higher or lower than overall.

SMILES	PABP polyA inh	Yeast UUG start	Env fusion inh	CSC inhib	eIF4H inh	Rce1 inh	MT1-MMP act inh	MT1-MMP act inh RFP	others
O=C(Nc1ccc(Cl)cc1)c1ccncc1	-1.3	-25.1	-18.7	8.7	-8.3	i	2.1	1.1
COC(=O)CNS(=O)(=O)c1ccc(C)cc1	3.6	-7.1	.	-25.2	-9.6	.	1.1	4.5
Cn1c(=O)c(=O)n(C)c2cc(N3CCCC3)c(NS(=O)(=O)c3ccc(F)cc3)cc21	5.8	1.3	-15.4	-6.7	-6.9	i	2.9	5.0
CCCCCCCCCCCCCCCC[n+]1cccc(C(=O)N(CC)CC)c1	5.0	25.2	32.7	142.8*	8.8	i	-8.7&-33.0	-17.3&-36.9
Cc1ccc(-n2ncc3c(N4CCC(C(N)=O)CC4)ncnc32)c(C)c1	10.5	-12.0	-18.8	6.9	7.8	i	-2.1	3.7
COc1ccc(N2CCN(C(=O)Cc3ccc(C)cc3)CC2)cc1	3.6	14.8	0.5	-9.0	-9.9	i	1.2	-6.5
Cc1ccc(C)n1-c1ccc(-c2nnc3n2CCCCC3)s1	3.5	-21.7	.	12.7	11.7	i	-2.7	4.3
COC(=O)c1cc(C(=O)CSc2nc(C)cc(C)n2)ccc1O	2.3	.	.	-6.9	-1.6	i	3.4	2.1
N#C/C(=C\c1c(N2CCCCC2)nc2ccccn2c1=O)C(=O)NC1CCS(=O)(=O)C1 (stereo not given)	-9.6	-3.3	-84.8	-11.8	5.7	i	-8.0	0.2
CN(C)/C=C1/OC(=O)C(C#N)=C1c1ccc(Cl)cc1	-3.2	1.1	-6.0	11.2	-12.4	i	1.3	5.4
O=C(NCCNCc1cccs1)c1ccccc1F	8.9	-9.8	-8.9	-14.7	8.7	i	0.9	-0.6
Cc1cccn2cc(-c3ccccc3)nc12	-1.7	-11.9	.	1.6	12.8	i	11.6	3.2
Cc1ccc(N2C(=O)C3C4CC(=O)C(c5ccccc54)C3C2=O)cc1C (stereo not given)	3.7	.	.	-12.1	-4.9	i	0.8	0.9
CNc1nc(NC#N)nc(SC)n1	9.8	.	-12.7	-10.0	-11.8	i	7.1	-3.6
COC(=O)CNC(=O)C1CCCN1C(=O)OC(C)(C)C (stereo not given)	16.5	-6.2	-192.3	-19.7	-3.0	i	-3.3	1.7

Overlap with the part before: three compounds, then new ones.
SMILES	PABP polyA inh	Yeast UUG start	Env fusion inh	CSC inhib	eIF4H inh	Rce1 inh	MT1-MMP act inh	MT1-MMP act inh RFP	others
Cc1ccc(N2C(=O)C3C4CC(=O)C(c5ccccc54)C3C2=O)cc1C (stereo not given)	3.7	.	.	-12.1	-4.9	i	0.8	0.9
CNc1nc(NC#N)nc(SC)n1	9.8	.	-12.7	-10.0	-11.8	i	7.1	-3.6
COC(=O)CNC(=O)C1CCCN1C(=O)OC(C)(C)C (stereo not given)	16.5	-6.2	-192.3	-19.7	-3.0	i	-3.3	1.7
COc1ccc(C(C)NC(=O)CCc2ccccc2)cc1 (stereo not given)	-5.7	-9.9	-8.6	-9.1	7.5	i	-3.9	0.5
CCOc1ccccc1C(=O)Nc1cc2c(cc1N1CCCC1)n(CC)c(=O)n2CC	-9.5	4.0	17.0	47.8	8.0	i	0.3	-13.2
Cc1cccc(OCC(=O)NNC(=O)c2cc3ccccc3oc2=O)c1	5.6	-9.5	.	2.5	-3.9	i	1.1	-0.3
Cc1cc2nccc(-c3ccc(OCCCF)cc3)n2n1	-4.2	-20.4	-7.0	-11.3	-7.0	i	7.1	-2.4
CC(C)C(=O)Nc1c2c(nn1-c1ccc(F)cc1)CSC2	-11.5	-12.5	7.4	-4.6	1.4	i	0.3	3.0
CCOC(=O)[C@H]1[C@H]2COc3ccc(Cl)cc3[C@@H]2N2C(=O)c3ccc(C)cc3NC(=O)[C@@]12C	.	3.1	-174.2	-9.9	.	.	-6.1	-1.7
CCCCN(CCCNC(=O)c1c(C)cc(=O)oc1C)c1ccccc1	-3.0	.	5.8	5.6	-8.0	i	-2.3	-8.6
Cc1nn(-c2cccc(Cl)c2)c2c1C(c1cccnc1)C(C#N)=C(N)O2 (stereo not given)	42.0	-14.3	-60.4	20.3	-1.0	i	7.3	-8.9
CNC[C@H]1Oc2cc(Br)ccc2S(=O)(=O)N([C@@H](C)CO)C[C@@H]1C	.	-0.3&-3.5&10.0	11.5	.	.	.	-2.4	1.9
CN(C)S(=O)(=O)c1ccc(C(=O)NNC(=O)C23CC4CC(CC(C4)C2)C3)cc1	.	-3.1	1.7	2.2	.	.	-1.2	-0.2
COc1ccccc1NC(=O)c1sc2nc3n(c(=O)c2c1C)CCC3	7.3	-13.5	-4.5	-2.0	-11.8	i	2.9	3.7
CCOC(=O)c1c(NC(=O)COc2ccccc2)sc2c1CC(C)(C)NC2(C)C	-0.1	.	20.2	7.0	-2.0	i	-5.5	-9.9
CCN(CC)C(=O)c1ccc2c(c1)nnn2C	-5.1	.	2.4	-5.2	2.4	i	1.0	0.9
Cc1c(CN2CCN(c3cccc(C(F)(F)F)c3)CC2)c(=O)n(-c2ccccc2)n1C	-1.0	-17.6	-8.6	-5.4	-10.0	i	9.4	4.2
Cc1ccc(Cl)c2c1NC(=O)C2=O	.	3.8	-13.3	.	.	.	-7.7	9.8
CCN(C(=O)CSc1ncccn1)c1c(N)n(Cc2ccccc2)c(=O)[nH]c1=O	.	-5.4	2.1	.	.	.	0.0	5.8
COc1cc(Br)c(-c2sc(Nc3ccccc3)n[n+]2-c2ccccc2)cc1OC	7.2	-14.5	-14.5	3.5	-1.3	i	-2.3	-0.1
O=C(CNc1ccccc1)N/N=C/c1c(O)ccc2ccccc12	2.5	.	9.3	57.3	9.6	i	-2.5	-0.7
O=C(COc1ccccc1F)N1CCc2ccccc2C1	14.3	-6.7	-17.7	-11.6	5.3	.	-6.9	-1.1
COC(=O)c1ccc([N+](=O)[O-])cc1N1C(=O)C2C3CCC(C3)C2C1=O (stereo not given)	9.1	3.5	-10.7	-0.6	3.5	i	6.3	2.9
CCOC(=O)c1c(C)cc(=O)oc1C	3.5	-28.4	-67.6	1.4	-1.7	i	2.4	2.4
CNc1ccccc(C(=O)/C=C/c2ccccc2OC)c1=O	-2.0	.	.	11.2	34.0	i	-18.0	3.2
O=C(Nc1ccc(F)cc1)Nn1cnnc1	2.5	-5.3	-13.3	-0.2	-0.8	i	2.6	2.8
CCOCN(C(=O)Cn1c(CO)nc2ccccc21)c1c(C)cccc1CC	8.2	-5.5	-89.0	.	12.5	i	-1.0	1.8
O=C(NC1(C(=O)NC2CCCCC2)CCCCC1)c1ccc2c(c1)OCO2	-1.1	-23.3	23.4	3.9	1.0	i	-1.7	2.4
Cc1nn(-c2ccccc2)c(Cl)c1/C=N/NC(=O)c1cccnc1	6.3	.	-249.1	5.6	-8.5	i	2.6	3.4
O=S(=O)(Nc1ncccn1)c1ccc(-n2cnnn2)cc1	-2.8	-11.3	1.0	0.0	-13.9	i	3.0	5.0
Nc1c(-c2ccc(Cl)cc2)cnn1-c1ccccc1	-10.2	-10.8	-122.3	.	2.0	i	0.3	-5.8
Cc1ccc(S(=O)(=O)NCC2CCC(C(=O)NCc3cccnc3)CC2)cc1 (stereo not given)	-1.3	.	2.8	40.5	-7.4	i	-1.2	-3.9
N#Cc1c(N)nc2c(c1-c1ccc(F)cc1)CCC2	8.0	-16.4	9.6	-17.2	-3.6	i	-0.3	4.3
S=C(NC1CCCCC1)N1CCN(C2CCCCC2)CC1	4.6	.	-3.2	4.1	0.8	i	0.4	4.5
O=C(COC(=O)C1CCC(=O)N1)Nc1ccccc1OC(F)F (stereo not given)	.	-3.2	.	-6.1	.	.	-0.4	1.3
O=S(=O)(Cc1ccccc1Cl)NCCc1ccccc1	4.1	-1.4	1.3	-6.8	3.0	i	2.2	5.0
COCCCN(Cc1ccccn1)S(=O)(=O)Cc1ccccc1	19.0	-22.9	.	-3.4	-4.5	i	-2.2	2.7
Cc1ccc(/C=C2\SC(=O)N(CCC(=O)N3CCN(C)CC3)C2=O)cc1	1.4	-14.0	-15.7	23.0	-5.4	i	-3.0	-3.6
COc1ccc(C=C2CCC3C(=O)CCCC3(C)C2=O)cc1 (stereo not given)	.	-61.8	-65.5	.	.	.	3.2	0.5
COc1ccc(-n2c(SCC(=O)Nc3ccccc3C)nc(O)c(Cc3ccccc3)c2=O)cc1	6.7	-12.1	-0.2	-13.1	2.2	i	5.3	0.4
COc1cc(OC)c2ccc(=O)oc2c1C(CC(=O)N1CCOCC1)c1ccc2c(c1)OCO2 (stereo not given)	27.7	-2.2	-1.2	-7.3	-9.7	i	-0.3	3.2
O=C(O)c1ccc(CSc2nnc(COc3ccccc3)o2)cc1	12.5	.	16.7	-14.6	-0.4	i	-1.4	1.2
COc1ccc(-c2nn3c(-c4ccccc4)nnc3s2)cc1	4.1	-20.8	-138.8	25.1	-6.2	i	-0.7	-0.7
O=C(NC(=S)N1CCOCC1)c1cc2ccccc2o1	-10.6	.	4.4	-2.0	-3.5	i	-0.6	2.2
c1ccc(-n2ncc3c(NCc4cccnc4)ncnc32)cc1	-4.1	-3.3	.	-7.7	3.3	i	-2.0	-6.3
CC(=O)Nc1cc(C(=O)OCC(=O)c2ccc(Cl)cc2Cl)ccc1C	0.5	-12.0	-5.1	-5.7	-13.1	i	1.0	-1.2
O=C(NCCc1ccccc1)C(=O)c1c(-c2ccccc2)[nH]c2ccccc12	-10.7	1.8	-36.3	-18.7	-7.2	i	-3.7	-3.8
Cc1ccnc(NS(=O)(=O)c2ccc(N3C(=O)c4c(Cl)c(Cl)c(Cl)c(Cl)c4C3=O)cc2)n1	119.5	-19.2	13.1	3.1	-5.6	i	2.7	3.3	eIF4H inh retest=-5.3;PABP polyA inh retest=5.7
COc1ccc(NC(=O)CN2C(=O)COc3ccccc32)cc1OC	0.1	2.8	8.4	-8.5	-5.9	i	-1.3	-2.5
CCN(CC)c1ccc(NC(=S)NC(=O)Cc2ccccc2)cc1	-4.5	-26.5	-1.4	11.6	6.2	i	-0.5	-2.2
O=C(CCC(=O)c1ccc(Cl)cc1)NCc1ccccc1	.	-17.1	5.6	-1.6	.	i	0.9	4.9
N#Cc1cccnc1N1CCN(C(=O)c2ccco2)CC1	-3.1	.	-7.5	-15.2	-2.8	i	2.2	5.9

Pulled by structure from the entries so far (5):
SMILES	PABP polyA inh	Yeast UUG start	Env fusion inh	CSC inhib	eIF4H inh	Rce1 inh	MT1-MMP act inh	MT1-MMP act inh RFP	others
COC(=O)CNS(=O)(=O)c1ccc(C)cc1	3.6	-7.1	.	-25.2	-9.6	.	1.1	4.5
Cc1nn(-c2ccccc2)c(Cl)c1/C=N/NC(=O)c1cccnc1	6.3	.	-249.1	5.6	-8.5	i	2.6	3.4
Cc1ccc(S(=O)(=O)NCC2CCC(C(=O)NCc3cccnc3)CC2)cc1 (stereo not given)	-1.3	.	2.8	40.5	-7.4	i	-1.2	-3.9
O=C(COc1ccccc1F)N1CCc2ccccc2C1	14.3	-6.7	-17.7	-11.6	5.3	.	-6.9	-1.1
COCCCN(Cc1ccccn1)S(=O)(=O)Cc1ccccc1	19.0	-22.9	.	-3.4	-4.5	i	-2.2	2.7
